Sfp PPTase inh: qHTS Assay for Inhibitors of Bacillus subtilis Sfp phosphopantetheinyl transferase (PPTase); 4'-phosphopantetheinyl transferase ffp (Bacillus subtilis), Q9F4F7; Biochemical Sfp PPTase activity, qHTS; Potency, µM, for inactives: max response, negative = inhibition, usual class: inhibitors; hit rate 3.5% among 310,000; active = well fitted inhibition curve with a large enough effect; inconclusive = small, poorly fitted or top-dose-only effect, or another doubt; inactive = no such curve, though single readings can be large or run the other way;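 note: the enzyme is Sfp with the accession as filed and its product quenches rhodamine fluorescence; potency is the fitted concentration of half-maximal effect; 0% = enzyme reaction without inhibitor and -100% = no enzyme wells; top concentration of the series not given in the record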
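Compounds were incubated with enzyme (final 15 nM) for 15 min at room temperature before substrate addition started the reaction. Fluorescence at 525 nm excitation, 598 nm emission was recorded immediately and after 30 minutes.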
gsp agonist: qHTS for Agonist of gsp, the Etiologic Mutation Responsible for Fibrous Dysplasia/McCune-Albright Syndrome: qHTS; gsp mutant cells, cAMP HTRF, 30 min; control for the full effect not named in the record; Potency, µM (titrated, usually from 76.9 µM), for inactives: at the highest dose activation (cAMP increase), usual class: activators; hit rate 0.13% among 340,000; active = well fitted activation curve with a large enough effect; inconclusive = small, poorly fitted or top-dose-only effect, or another doubt; inactive = no such curve, though single readings can be large or run the other way; cell line not stated here;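 note: phosphodiesterase inhibitor Ro 20-1724 added with compounds to block cAMP breakdown; potency is the fitted concentration of half-maximal effect; nearly all actives have a fitted effect of over 60% in size; about a fifth of the inactives were tested at one dose only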
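Cells stably selected in G418 were plated at 2000/well, grown 16-24 hr, then given compounds in DMSO with the PDE inhibitor […] (300 uM solution added) for 30 min at 37C; cAMP was read by HTRF.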
Menin MLL FP FL: qHTS Assay for Inhibitors Targeting the Menin-MLL Interaction in MLL Related Leukemias: Competition With Fluorescein Labeled MLL-derived Peptide; Fluorescence polarization, fluorescein-MLL peptide displacement from menin; FP activity change, % at 61.4 µM; 290,000 tested, under 10 active; inconclusive = falling polarisation curve, or a change in total fluorescence; inactive = total fluorescence flat and polarisation flat or rising; no compound was filed as active; the % refers to the polarisation; negative = inhibition;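 note: % of control where 0% means no effect; inhibitors lower the polarisation; unlabelled MLL peptide was the positive control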
PINK1 expr mod: A Quantitative High throughput Screen to Identify Chemical Modulators of PINK1 Expression. AID 624263, 2012. hit rate 0.2% among 410,000. Potency, µM (doses to about 76.6 µM), for the others: top-dose activation (PINK1 increase), hits mostly activators. PINK1 immunofluorescence, high-content cytometry, 24 h; active = well fitted activation curve with a large enough effect; inconclusive = small, poorly fitted or top-dose-only effect; inactive = flat fitted curve, though single readings scatter; cell line not stated here;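 note: potency is the fitted concentration of half-maximal effect; % of control where 0% means no effect; nearly all actives have a fitted effect of over 65% in size; a mitochondrial uncoupler was the plate control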
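Cells are seeded, rested 12 hours, then given compound at five concentrations or DMSO for 24 hours. After fixation, blocking and antibody staining, PINK1 amount and mitochondrial localization are scored; CCCP serves as control.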
ClpP mod: qHTS Assay for Activators of ClpP | ATP-dependent Clp protease proteolytic subunit (Bacillus subtilis (strain 168)), P80244 | purified B. subtilis ClpP, FRET peptide cleavage, 20 min | Potency, µM (top dose mostly 57.5 µM), for inactives: top-dose activity change, negative = active | hit rate 1.9% among 340,000 | AID 651965, 2013; active = well fitted falling curve with a large enough effect; inconclusive = small, poorly fitted or top-dose-only effect; inactive = no such curve, though single readings can be large or run the other way; note: potency is the fitted concentration of half-maximal effect; the source files actives as falling curves though it sought activators and does not explain the sign; nearly all actives have a fitted effect of over 65% in size; many hits overshoot -100%
Target sequence (P80244 whole entry, looked up): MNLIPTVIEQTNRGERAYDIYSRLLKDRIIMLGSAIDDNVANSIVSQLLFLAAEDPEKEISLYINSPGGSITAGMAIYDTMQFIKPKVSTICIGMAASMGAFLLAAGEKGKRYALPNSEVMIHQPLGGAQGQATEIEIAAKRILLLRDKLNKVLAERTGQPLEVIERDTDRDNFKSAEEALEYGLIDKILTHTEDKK
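ClpP 10 microg/mL final, pH 8 Tris/KCl buffer with BSA, glycerol, Tween-20; compound pinned in; FRET-FV substrate; RT 20 min; Ex320/Em430; ΔFRET vs ADEP 5.8 microM, DMSO, no enzyme.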
gsp antag: qHTS for Antagonists of gsp, the Etiologic Mutation Responsible for Fibrous Dysplasia/McCune-Albright Syndrome: qHTS. gsp-mutant cells, cAMP HTRF, 30 min; control for the full effect not named in the record. Potency, µM (doses to about 76.9 µM), inactives show at the highest dose activity change, negative = inhibition, usual class: inhibitors. hit rate 0.4% among 340,000. AID 624288, 2012; active = falling curve of any shape with a large fitted effect; inconclusive = falling curve, mostly with a smaller effect; inactive = flat or rising curve; cell line not stated here;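 note: intracellular cAMP measured with PDE inhibitor Ro 20-1724 present during compound exposure; potency is the fitted concentration of half-maximal effect; % is set by controls: 0 for no effect and ±100 for the full control effect; nearly all actives have a fitted effect of over 65% in size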
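HTRF cAMP measurement after 30 min RT detection following 30 min, 37C compound treatment alongside […] (added as 300 uM solution) in G418-selected cells seeded at 2000/well and grown 16–24 h.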
D2 ag: Beta-Arrestin HTS for Positive Allosteric Modulators of the Human D2 Dopamine Receptor: Agonists | hit rate 0.084% among 360,000 | DiscoveRx PathHunter D2 beta-arrestin, luminescence, 90 min; 100% = 57 uM dopamine signal | activation, % (test concentration not listed) | D(2) dopamine receptor (Homo sapiens), P14416; in the data active = activation above about 40%; inconclusive = about 15% to 40%; inactive = below about 15%; note: compound concentration not given in the record; the text of the record calls up to 30% inactive
Target sequence (P14416 whole entry, looked up): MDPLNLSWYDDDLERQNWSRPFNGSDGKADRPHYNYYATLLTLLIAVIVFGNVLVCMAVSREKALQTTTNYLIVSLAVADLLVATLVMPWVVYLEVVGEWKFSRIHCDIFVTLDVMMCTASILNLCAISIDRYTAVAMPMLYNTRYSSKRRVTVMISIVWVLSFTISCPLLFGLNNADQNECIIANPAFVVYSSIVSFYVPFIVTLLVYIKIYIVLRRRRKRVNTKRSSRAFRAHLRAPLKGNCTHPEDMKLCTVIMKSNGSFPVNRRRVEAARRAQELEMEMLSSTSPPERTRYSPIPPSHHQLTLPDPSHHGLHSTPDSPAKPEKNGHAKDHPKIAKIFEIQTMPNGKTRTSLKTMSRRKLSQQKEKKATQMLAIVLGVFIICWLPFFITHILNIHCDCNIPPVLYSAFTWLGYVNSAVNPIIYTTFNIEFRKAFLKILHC
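Agonist mode: compounds alone added to overnight-plated D2 PathHunter cells for 90 min at 37 C, with 57 uM final dopamine (EC100) defining full response. Beta-arrestin recruitment detected by chemiluminescent reagent, read after 1 h at ambient temperature.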
Active calls of the source: *; ? = inconclusive; nt = no result given; & = joins results of further samples; [ ] = another dose, or the depositor's remark.

Every second line gives: Sfp PPTase inh	gsp agonist	Menin MLL FP FL	PINK1 expr mod	ClpP mod	gsp antag	D2 ag
CC(CCC(C)C(C)(C)C)[C@@H]1CC[C@H]2C3C[C@H](OS(O)(=S)=S)[C@H]4C[C@H](OS(O)(=S)=S)[C@@H](OS(O)(=S)=S)C[C@]4(C)[C@H]3CC[C@]12C (stereo partly specified) (tested in a mixture with another compound)
  nt	nt	nt	27%	-0.1%	?	-0.5
O=C(NCC1CCCO1)c1cc2c([nH]c3ccccc32)c(-c2cccc(Br)c2)n1 (stereo unspecified)
  12%	nt	11	0.6%	4.5%	?	6.4
COc1ccc(NC(=O)c2cc(C3CCCCN3S(=O)(=O)c3ccccc3)on2)c(C)c1 (stereo unspecified)
  nt	nt	nt	-0.4%	0.3%	nt	-3.1
CCCCc1nc2sc3c(SCC(=O)NCc4ccco4)ncnc3c2c2c1CCC2
  45µM*	?	6.4	15%	2.0%	9%	-0.8
C/C(=N\NC(=O)c1ccncc1)c1cccc(NC(=O)c2ccc(Cl)s2)c1
  4%	?	nt	1.8%	-0.6%	?	-2.4
NC(=S)N/N=C/c1coc2ccc(Br)cc2c1=O
  3%	-37%	3.3	-0.9%	nt	-7%	6.1
CCOC(=O)C1C2C=CC3(CN(c4ccc(Cl)c(F)c4)C(=O)C13)O2 (stereo unspecified)
  14%	7%	-1.9	0.8%	0.9%	2%	-1.2
COc1ccc(-c2cc(C(=O)Nc3ccc4c(c3)OCO4)no2)cc1OC
  -12%	-1%[15.4 µM]	-4.4	14%&3.5%	2.6%&-3.4%	0%	-1.9
Cc1ccc(C(=O)OCC(=O)NC(C)C)cc1S(=O)(=O)N1CCOCC1
  -11%	9%[15.4 µM]	-0.4	0.1%	-1.1%	6%	-2.9
COc1ccc(OC)c(CCNC(=O)CSc2ccsc2[N+](=O)[O-])c1
  5%	-3%	0.1	0.0%	-0.1%	-3%	-1.2
CC(C)(C)OC(=O)NC(=NCCCc1cn(CC(=O)N2CCN(C(=O)OC(C)(C)C)CC2)nn1)NC(=O)OC(C)(C)C
  -4%	nt	-5.1	-1.7%	0.8%	-2%	1.2
COCCCn1c(=O)/c(=C\c2ccc(OC(F)F)c(OC)c2)s/c1=C(/C#N)C(=O)NCCOC
  7%	97%[15.4 µM]	?	30%	nt	3%	0.7
CC1=C(C(=O)N(C(C)C)C(C)C)CC(CC(=O)NC2CCCCC2)C(=O)N1CCC1=CCCCC1 (stereo unspecified)
  nt	nt	nt	6.3%	1.2%	nt	-3.4
Nc1ccc(C23CC4CC(CC(CO)(C4)C2)C3)cc1
  2%	-59%[inhibitor]	1.1	-0.5%	-1.0%	-14%	-2.3
CCC(CC)C(=O)NCCc1cc2c(OC)ccc(OC)c2[nH]c1=O
  1%	27%	-3.9	-2.9%	?	0%	-0.3
COCCC1CCCCN1C(=O)c1cc(COc2cccc(C(C)=O)c2)on1 (stereo unspecified)
  ?	2%	nt	-0.3%	-1.9%	-8%	5.7
CCN1CSC(=S)N(Cc2ccccc2)C1
  -10%	-39%[inhibitor][15.4 µM]	?	4.0%	nt	-12%	-3.5
COc1ccc(COC(=O)CCS(=O)(=O)c2ccc(C)cc2)cc1
  nt	8%[15.4 µM]	nt	-3.1%	nt	4%	-0.8
C/C(=N\NC(=S)NCCc1ccccc1)c1ccc(Cl)cc1Cl
  15%	20%[15.4 µM]	-2.6	4.6%	nt	nt	-7.0
C/C(=N\NC(=O)c1ccc(-c2ccccc2)cc1)C1C(=O)c2ccccc2C1=O
  4%	3%	3.3	?	0.0%	28µM*	3.6
C(=N\N1CCN(C2c3ccccc3-c3ccccc32)CC1)/c1ccncc1
  2%	-6%	2.2	4.1%	3.6%	-16%[15.4 µM]	-1.4
O=[N+]([O-])c1ccccc1NCCNc1ncc(C(F)(F)F)cc1Cl
  -3%	-21%	2.2	8.9%	1.8%	-3%[15.4 µM]	-0.9
CN1C(=O)c2ccc(C(=O)Nc3ccccc3O)cc2C1=O
  16%	-33%[inhibitor]	1.3	0.1%	1.1%	-2%	5.1
CCOc1ccc(NC(=O)CSc2nc3ccccc3c(=O)n2CCCC(=O)NCCCN2CCCC2=O)cc1
  3%	-2%	-4.9	0.9%	-0.2%	-11%	-1.3
CC(C(=O)Nc1sc2c(c1C(=O)NCc1ccco1)CCCC2)N1C(=O)c2ccccc2C1=O (stereo unspecified)
  ?	0%	2.3	0.3%	-1.2%	4%	0.3
CCC1(c2ccc(F)cc2)NC(=O)N(CC(=O)N2CCc3ccccc3C2)C1=O (stereo unspecified)
  nt	0%	nt	1.2%	-14%	4%	-4.8
Cc1ccc(SCCn2nc(C(=O)O)c3ccccc3c2=O)cc1
  11%	1%[15.4 µM]	0.3	0.0%	nt	2%	0.4
COc1ccccc1N1CCN(C(=O)c2ccc(S(=O)(=O)N3CCCCC3)cc2)CC1
  17%	9%	-1.0	0.4%	6.5%	1%	-0.4
COc1ccc(NC(=O)NCc2ccccn2)cc1OC
  10%	13%	-1.1	0.7%	-1.5%	11%	-0.2
CCCC(=O)Nc1cccc(-c2nc3cc(C)c(C)cc3o2)c1
  8%	?	4.2	3.0%	22µM*	-17%	-3.6
Cc1cccc(NC(=O)CSCC(=O)Nc2ccccc2C(=O)NC2CC2)c1
  nt	-2%[15.4 µM]	nt	1.6%	nt	-6%	1.2
O=C(Nc1cc2c(oc1=O)CCCC2=O)c1ccc(Cl)cc1
  0%	?	5.1	22%[38.3 µM]	-5.5%	-4%	-1.3
O=C(CNC(=O)c1ccc(Br)o1)NCc1ccccc1
  2%	-27%	nt	7.5%	0.6%	-5%	-0.4
Cn1nccc1-c1coc2c(C(=O)NCc3ccccc3)cccc12
  nt	nt	nt	1.2%	-14%	nt	-0.8
Nc1cccc(CCc2ccncc2)c1
  7%	?	2.4	2.0%	nt	6%	5.2
CCOC(=O)C[n+]1c(C)csc1C
  -12%	-1%[15.4 µM]	-1.3	2.0%	-0.5%	11%	-4.4
O=C1NC2=C(C(=O)CCC2)C(c2ccc3ncccc3c2)N1 (stereo unspecified)
  17%	?	0.5	nt	-2.0%	19%	0.5
O=C(c1ccccc1)c1c[nH]c(C(=O)NCCCN2CCOCC2)c1
  2%	?	0.4	nt	1.4%	4%	-1.9
Cn1c2ccc(Cl)cc2c2nc3ccccc3nc21
  ?	?	3.5	4.3%	-2.1%	10%	-7.9
COc1ccccc1C(=O)N1CCN(C2CCN(Cc3ccccc3)CC2)CC1
  -18%	?	3.3	0.3%	3.7%	10%	-1.1
Cc1ccc(-c2cc(C(=O)N/N=C/c3ccc(Cl)cc3)n[nH]2)o1
  2%	-5%[15.4 µM]	-0.9	3.7%	nt	-18%	2.2
COc1ccc(CN(Cc2cccnc2)S(=O)(=O)c2ccc(-n3cnnn3)c(C)c2)cc1OC
  -9%	23%	8.4	-0.7%[38.3 µM]	-1.4%	-3%	2.9
CSc1nnc(C)c(=O)n1COC(=O)COc1ccc(Cl)cc1
  1%	2%	2.6	1.9%	nt	2%	-2.2
Cc1ccc(C)c(OCC(=O)Nc2nonc2NC(=O)COc2cc(C)ccc2C)c1
  ?	14%	2.8	2.0%	0.4%	2%	-0.6
O=C1c2ccccc2C(Nc2ccc3c(c2)OCCO3)N1Cc1ccccc1 (stereo unspecified)
  1%	-33%[inhibitor]	3.6	0.3%	1.1%	-25%	3.5
O=c1c2[nH]c3ccccc3c2ncn1CCCn1ccnc1
  15%	-33%[inhibitor]	-0.6	5.8%[38.3 µM]	?	4%	-0.6
COc1cc(/C=C2\SC(=S)N(NC(=O)c3cccc(O)c3)C2=O)ccc1O
  -13%	?	?	8.1%	nt	-22%	-6.5

Entries shown so far that have fluorine, in the order listed:
Every second line gives: Sfp PPTase inh	gsp agonist	Menin MLL FP FL	PINK1 expr mod	ClpP mod	gsp antag	D2 ag
CCOC(=O)C1C2C=CC3(CN(c4ccc(Cl)c(F)c4)C(=O)C13)O2 (stereo unspecified)
  14%	7%	-1.9	0.8%	0.9%	2%	-1.2
COCCCn1c(=O)/c(=C\c2ccc(OC(F)F)c(OC)c2)s/c1=C(/C#N)C(=O)NCCOC
  7%	97%[15.4 µM]	?	30%	nt	3%	0.7
O=[N+]([O-])c1ccccc1NCCNc1ncc(C(F)(F)F)cc1Cl
  -3%	-21%	2.2	8.9%	1.8%	-3%[15.4 µM]	-0.9
CCC1(c2ccc(F)cc2)NC(=O)N(CC(=O)N2CCc3ccccc3C2)C1=O (stereo unspecified)
  nt	0%	nt	1.2%	-14%	4%	-4.8

Look-ups from the results shown:
In Menin MLL FP FL, `COc1ccc(CN(Cc2cccnc2)S(=O)(=O)c2ccc(-n3cnnn3)c(C)c2)cc1OC` shows 8.4
In gsp agonist, `Cc1ccc(-c2cc(C(=O)N/N=C/c3ccc(Cl)cc3)n[nH]2)o1` shows -5%[15.4 µM]
